Source: PubChem BioAssay
Six1-Eya2 inh – qHTS Assay for Inhibitors of the Six1/Eya2 Interaction | AlphaScreen GST-Six1/His-Eya2 binding, biochemical; hits give low values; control for the full effect not named in the record | activity change, % (test concentration not listed) | hit rate 0.56% among 360,000 | AID 651725, 2012; in the data active = activity change below about -65%; inconclusive = about -30% to -65%; inactive = above about -30%; further: on the % scale 0 is the no-effect control and ±100 the full control effect; compound concentration not given in the record
Target sequence (O00167 whole entry, looked up): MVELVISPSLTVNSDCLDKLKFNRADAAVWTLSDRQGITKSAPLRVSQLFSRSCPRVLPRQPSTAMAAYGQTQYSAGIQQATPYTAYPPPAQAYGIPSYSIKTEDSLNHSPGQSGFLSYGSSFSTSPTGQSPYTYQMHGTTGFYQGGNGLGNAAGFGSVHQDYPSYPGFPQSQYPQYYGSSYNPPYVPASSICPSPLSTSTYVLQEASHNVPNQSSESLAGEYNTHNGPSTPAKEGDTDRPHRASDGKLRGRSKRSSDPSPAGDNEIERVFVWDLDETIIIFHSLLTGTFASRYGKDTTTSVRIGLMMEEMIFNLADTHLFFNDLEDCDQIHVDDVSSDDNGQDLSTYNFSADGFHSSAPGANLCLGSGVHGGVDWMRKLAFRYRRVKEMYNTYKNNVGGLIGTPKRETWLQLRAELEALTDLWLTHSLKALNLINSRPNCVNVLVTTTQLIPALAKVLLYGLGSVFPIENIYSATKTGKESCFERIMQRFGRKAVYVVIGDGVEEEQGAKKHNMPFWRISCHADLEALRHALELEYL
Target sequence (Q15475 whole entry, looked up): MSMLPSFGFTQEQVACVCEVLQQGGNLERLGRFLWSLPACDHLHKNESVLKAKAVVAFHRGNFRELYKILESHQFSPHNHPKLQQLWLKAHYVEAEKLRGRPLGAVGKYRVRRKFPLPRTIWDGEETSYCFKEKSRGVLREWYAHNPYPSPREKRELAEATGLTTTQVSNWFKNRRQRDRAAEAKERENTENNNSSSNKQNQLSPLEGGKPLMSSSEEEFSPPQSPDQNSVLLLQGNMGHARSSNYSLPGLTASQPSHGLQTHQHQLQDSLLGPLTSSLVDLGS
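AlphaScreen with GST-Six1 and His-Eya2 (5X mix: 250 nM and 500 nM), glutathione donor and nickel acceptor beads; buffer 50 mM Tris pH 8.0, 300 mM NaCl, 1 mM TCEP; 1 h at 37 C in the dark.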
D2 potentiator – Beta-Arrestin HTS for Positive Allosteric Modulators of the Human D2 Dopamine Receptor: Potentiators; hit rate 0.23% among 360,000; potentiation, % (test concentration not listed); DiscoveRx D2 beta-arrestin cells, luminescence, 90 min; 100% = 57 uM dopamine signal; active = potentiation of 50% or more; inconclusive = 30% to 50%; inactive = 30% or less;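 further: compound concentration not given in the record; tested on top of an EC20 dose of dopamine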
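PathHunter D2 cells, attached overnight at 37 deg C, received compound in DMSO plus dopamine at EC20 (50 nM final) for 90 min at 37 deg C. Beta-arrestin recruitment was read as luminescence after 1 h with detection reagent at ambient temperature.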
PINK1 expr mod – A Quantitative High throughput Screen to Identify Chemical Modulators of PINK1 Expression; hit rate 0.2% among 410,000; Potency, µM (series often up to 76.6 µM), without a hit: top-dose activation (PINK1 increase), actives largely listed as activators; PINK1 immunofluorescence, high-content cytometry, 24 h; active = well fitted activation curve with a large enough effect; inconclusive = small, poorly fitted or top-dose-only effect; inactive = flat fitted curve, though single readings scatter; cell line not stated here;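 further: potency means the concentration at half of the fitted maximal effect; % of control where 0% means no effect; nearly all actives have a fitted effect of over 65% in size; a mitochondrial uncoupler was the plate control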
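Compound titrations (5 concentrations, 24 h) on a stable cell line; DMSO and CCCP controls. Endpoint: fixed-cell PINK1 immunofluorescence with mitochondrial, cell and nuclear markers, scanned by microplate cytometer.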
TRPML1 blocker – qHTS for Inhibitors of the Human Mucolipin Transient Receptor Potential 1 (TRPML1); Mucolipin-1 (Homo sapiens), Q9GZU1; TRPML1-inducible cells, Ca2+ dye fluorescence, FDSS; hits give low values; inhibition of EC80 agonist-evoked calcium signal; activity change, negative = inhibition, % (concentration not given with the values); hit rate 0.02% among 390,000; in the data active means activity change below about -50%; inconclusive means about -30% to -50%; inactive means above about -30%;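 further: stimulus is agonist 54-4 at its EC80 concentration; on the % scale 0 is the no-effect control and ±100 the full control effect; compound concentration not given in the record; the text of the record puts the active cut at -80%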
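Tet-induced TRPML1-DL cells loaded with Ca8 no-wash calcium dye were read kinetically on FDSS. Compound addition was followed by EC80 agonist 54-4 (4 uM final); inhibition was read over 110 s.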
TRPML1 agonist – qHTS for Agonists of the Human Mucolipin Transient Receptor Potential 1 (TRPML1); TRPML1-expressing cells, Ca2+ dye fluorescence, FDSS; host cell line not named in the record; reference of the full effect not given here; activation, % (concentration not given with the values); hit rate 0.12% among 410,000; in the data active = activation above about 50%; inconclusive = about 30% to 50%; inactive = below about 30%; further: 0% is about no effect; the text of the record puts the active cut at 80%
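Cells: TRPML1-DL, 1X Tet inducer, ~16 h at 37 degrees C/5% CO2. Dye: ABD Ca8 no-wash + quencher, 45-90 min RT. Read: 10 s baseline, compound add, 110 s agonist phase; 54-4 EC80 (4uM final), 110 s antagonist phase.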
D2 ag – Beta-Arrestin HTS for Positive Allosteric Modulators of the Human D2 Dopamine Receptor: Agonists. activation, % (no concentration beside the values). hit rate 0.084% among 360,000. DiscoveRx PathHunter D2 beta-arrestin, luminescence, 90 min; 100% = 57 uM dopamine signal. D(2) dopamine receptor (Homo sapiens), P14416; in the data active = activation above about 40%; inconclusive = about 15% to 40%; inactive = below about 15%; further: compound concentration not given in the record; the text of the record calls up to 30% inactive
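DiscoveRx PathHunter D2 beta-arrestin cells (2,100/well) attached overnight, then compound-stimulated 90 min at 37 C in HBSS/10 mM HEPES/0.1% Tween-20 buffer; beta-galactosidase complementation read by luminescence after 1 h at ambient temperature. Dopamine 57 uM final (EC100) as control.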
Active calls of the source: *; ? = inconclusive; / = no result given; & = joins results of further samples; [ ] = remark or other dose.

Structure	Six1-Eya2 inh	D2 potentiator	PINK1 expr mod	TRPML1 blocker	TRPML1 agonist	D2 ag
COc1ccc(C(=O)Nc2nc3ccccc3s2)cc1	-6	-44	3.4%	-1	4.1	4.5
CC1CC(C)CN(C(=O)C2CCC(CNS(=O)(=O)c3ccccc3)CC2)C1 (stereo unspecified)	5	-9	-0.5%	11	4.1	-1.8
Cc1ccc(NC(=O)COC(=O)CNC(=O)C2CCCCC2)cc1S(=O)(=O)N(C)C	7	-4	1.3%	4	-0.4	-4.4
COc1ccc(OC)c(CN2CCN(C(=O)CNC(=O)c3ccc(C(C)(C)C)cc3)CC2)c1	-8	-2	0.0%	22	3.7	3.8
Cc1ccccc1CC1(CO)CCCN(Cc2ccc(C#CC(C)(C)O)cc2)C1 (stereo unspecified)	2	-13	-1.0%	-5	-0.6	-2.1
C=CCN1C(=O)C(Cc2ccc(Br)cc2)S/C1=N\N=C\c1ccco1 (stereo unspecified)	4	0	13%	24	3.2	-1.1
O=C1[C@@H](Oc2ccccc2)[C@@H](c2ccncc2)N1c1ccccc1	3	/	8.9%	-1	-0.4	-0.4
CCCCCOc1ccc(C2C(C(C)=O)=C(C)Nc3ncnn32)cc1OC (stereo unspecified)	-8	-5	-1.3%	4	-1.6	-2.9
S=C(NCc1ccc2c(c1)OCO2)NCc1ccc2c(c1)OCO2	-21	0	2.6%	-2	0.1	2.0
CCCCC(=O)Nc1ccc2c3c(cccc13)C(=O)N2CC	-2	-7	4.3%[38.3 µM]	1	0.3	-0.7
C[C@H](CO)N1C[C@H](C)[C@H](CN(C)C(=O)Nc2ccc(F)cc2)OCc2ccccc2-c2c(n(C)c3ccccc23)C1=O	-4	-8	-1.8%	-2	13	-2.3
O=C1c2ccncc2C(=O)N1CO	-6	-3	1.7%	2	-0.5	-5.0
Cc1cccc(NS(=O)(=O)c2ccc3c(c2)C(C)(C)C(=O)N3C)c1	/	/	0.1%	-20	1.6	/
Cc1ccc(-c2nc3ncccn3c2Nc2ccccc2C)o1	-5	3	0.1%	-9	0.2	-1.3
COC(=O)c1ccc(/C=N\n2c(C)nnc2C)cc1	0	0	2.6%	-1	1.5	-1.2
COc1cc(C(=O)N/N=C(\C)c2ccc3c(c2)OCO3)cc(OC)c1OC	7	-10	6.5%	17	-0.8	-1.0
O=C(Cn1cc(COc2c(F)c(F)c(Br)c(F)c2F)nn1)c1ccc(O)cc1	-2	-4	-0.5%	3	-1.1	-2.1
CC(C)c1ccc(CN2CCC2(C)C(=O)Nc2ccc3c(c2)OCO3)cc1 (stereo unspecified)	1	-9	?	/	0.9	-6.1
CC(=O)c1ccc(OCCCC(=O)OCc2nnc(-c3ccc(Cl)cc3)o2)cc1	1	-11	5.9%[38.3 µM]	-7	-0.3	-2.7
O=C1c2ccc(Oc3ccc([N+](=O)[O-])cc3)cc2C(=O)N1CCO	1	-4	1.1%	-3	-1.8	-1.6
Cc1cc([N+](=O)[O-])ccc1N=Nc1c(N)[nH]n(-c2ccccc2)c1=O	-15	-3	4.5%	-3	0.8	2.8
O=[n+]1c2c(n([O-])c3c1CCC3)CCCC2	11	9	0.9%	0	0.0	-0.5
CCOC(=O)c1ccc(NC2c3ccccc3C(=O)N2c2ccc(C)cn2)cc1 (stereo unspecified)	1	-10	-0.1%	-1	-0.2	-6.3
COc1ccc(C(CNc2ccc(C(F)(F)F)cn2)N(C)C)cc1OC (stereo unspecified)	1	-13	-0.6%	45	1.0	-1.9
Cc1cc(C(=O)CN2C(=O)CCC2=O)c(C)n1Cc1ccccc1	1	22	0.1%	-8	-0.1	-1.5

In another format: entries from further up
mol: COc1cc(C(=O)N/N=C(\C)c2ccc3c(c2)OCO3)cc(OC)c1OC
  Six1-Eya2 inh: 7	D2 potentiator: -10	PINK1 expr mod: 6.5%	TRPML1 blocker: 17	TRPML1 agonist: -0.8	D2 ag: -1.0
mol: O=C(Cn1cc(COc2c(F)c(F)c(Br)c(F)c2F)nn1)c1ccc(O)cc1
  Six1-Eya2 inh: -2	D2 potentiator: -4	PINK1 expr mod: -0.5%	TRPML1 blocker: 3	TRPML1 agonist: -1.1	D2 ag: -2.1
mol: CC(C)c1ccc(CN2CCC2(C)C(=O)Nc2ccc3c(c2)OCO3)cc1 (stereo unspecified)
  Six1-Eya2 inh: 1	D2 potentiator: -9	PINK1 expr mod: ?	TRPML1 blocker: /	TRPML1 agonist: 0.9	D2 ag: -6.1
mol: CC(=O)c1ccc(OCCCC(=O)OCc2nnc(-c3ccc(Cl)cc3)o2)cc1
  Six1-Eya2 inh: 1	D2 potentiator: -11	PINK1 expr mod: 5.9%[38.3 µM]	TRPML1 blocker: -7	TRPML1 agonist: -0.3	D2 ag: -2.7

The results go on.
Structure	Six1-Eya2 inh	D2 potentiator	PINK1 expr mod	TRPML1 blocker	TRPML1 agonist	D2 ag
Cc1ccc(OCC(=O)N(Cc2ccco2)C2CCS(=O)(=O)C2)cc1 (stereo unspecified)	-1	-3	0.8%&3.1%	1&-9	-0.9&-0.2	-2.8
O=C(NCCC1=CCCCC1)c1ccc(-n2cncn2)c([N+](=O)[O-])c1	-6	-6	0.4%	-2	1.4	-2.9
O=C(CCc1nnc(-c2ccc(-c3ccccc3)cc2)o1)NCCc1ccccn1	-2	-1	1.3%	19	1.3	-0.4
CCOc1ccc(/C=C/C2=Cc3c(sc(NC(=O)CSc4n[nH]c(N)n4)c3C#N)C(C)(C)C2)cc1	-11	-2&-6	-6.9%[38.3 µM]	4	9.8	-0.6
O=C(c1ccc(Nc2nc3ccccc3n3nnnc23)cc1)N1CCN(c2cccc(C(F)(F)F)c2)CC1	/	/	3.1%	14	0.8	/
CCC(Sc1nc(C)cc(C)n1)C(=O)O (stereo unspecified)	5	-6	0.1%[38.3 µM]	25	3.4	0.7
CCCCN1CC(COCc2ccccc2)Oc2cccc(NCc3ccc(OC)cc3)c2S1(=O)=O (stereo unspecified)	-4	/	-0.5%	7	1.0	-1.8
CCOc1ccccc1CNC(=O)c1oc2ccc3c(c2c1C)C(=O)CC(C)(C)O3	/	/	1.0%	5	13	/
Cc1ccc(C2SCC(=O)N2c2ccccc2)cc1 (stereo unspecified)	-5	-2	-0.7%	10	1.1	-2.0
O=C1C=CC(=Nc2ccc3c(c2)Cc2ccccc2-3)O1	-10	-7	0.7%	-4	1.1	-2.5
CC(=O)N1CCC(N(CCN2CCOCC2)C(=S)Nc2ccccc2C)CC1	4	11	0.7%	-7	-0.1	1.6
CCOC(=O)c1c(NC(=O)C2C3C=CC(C3)C2(C)C(=O)O)sc2c1CCCC2 (stereo unspecified)	-2	5	-0.4%	-1	-0.7	-1.5
CCCCSc1nsc(NC(C)=O)n1	7	-9	/	-5	0.0	2.0
CCCCC1CC1C(=O)Nc1ccc(OC)c(OC)c1 (stereo unspecified)	-7	-7	-1.1%[38.3 µM]	2	-0.3	0.9
Cc1ccc2c(c1)N(CC(=O)NCc1cccnc1)C(=O)CO2	4	-3	3.3%	1	-0.1	0.1
COc1cc(OC)c(N(C)S(=O)(=O)c2cccc(C(=O)Nc3nccs3)c2)cc1Cl	?	11	13%	4	2.3	6.0
Cc1sc2ncnc(OCC(=O)NC3CCS(=O)(=O)C3)c2c1C (stereo unspecified)	-4	-3	-0.3%	4	0.1	-5.8
COc1ccc(C(=O)NC(C)c2ccc(-n3ccnc3)cc2)cc1S(=O)(=O)N1CCOCC1 (stereo unspecified)	2	6	3.4%	12	0.1	-1.6
COc1ccccc1N(C(=O)c1ccco1)C(C(=O)NC1CCCC1)c1cccs1 (stereo unspecified)	-3	-10	1.9%	11	0.1	-5.8
COc1ccc(C(=O)OCC(=O)NCC2CCCCC2)cc1S(=O)(=O)N1CCCc2ccccc21	-6	9	4.0%	15	2.2	-1.4
Cc1cc(N2CCN(C(=O)c3ccco3)CC2)n2nc(-c3cccc(Cl)c3)cc2n1	-22	0	8.8%[38.3 µM]	-7	3.2	-4.8
COc1ccc(OC)c(C2C(C(=O)c3ccccc3)=C(C)Nc3nc4ccccc4n32)c1 (stereo unspecified)	-2	-8	6.5%	-1	-1.4	0.6
COc1ccc(NC(=O)C23CC4CC(C2)CC(n2cnc(Br)n2)(C4)C3)c(C)c1	1	7	1.3%[38.3 µM]	-9	-0.4	2.5
O=C(c1cc2cc(F)ccc2[nH]1)N(Cc1cccnc1)CC1CCCN(C2CCCCC2)C1 (stereo unspecified)	-5	-29	2.5%	0	-0.2	-1.0
Cc1ccc(CCNC(=O)c2ccc3c(c2)N(Cc2ccccc2)C(=O)c2ccccc2S3=O)cc1 (stereo unspecified)	/	/	1.2%	10	-0.4	/
O=C(O)CCCSCC(=O)Nc1ccccc1	21	-7	5.0%[38.3 µM]	-9	-0.5	-3.4
CCc1ccc(-n2c(=O)c3c(C)c(C(=O)N(C)C)sc3n(Cc3ccccc3F)c2=O)cc1	/	/	-0.1%	-15	0.5	/
CCOC(=O)c1cc(C)nc(N2CCCCC2)c1C#N	33	-17	2.1%	6	-1.4	-2.9
CCCn1ncc(CN2CCC(n3nccc3NC(=O)c3ccccc3OC)CC2)c1C	-2	-12	1.1%	11	0.5	-1.3
COc1ccccc1N1CCN(CCCNC(=O)c2nnc(Cc3c(F)cccc3Cl)o2)CC1	/	/	-1.3%	7	-0.2	/
COc1ccc(CNC(=O)c2ccc(NC(=O)N3CCCCc4ccccc43)cc2)c(OC)c1	/	/	-1.9%	-27	0.7	/
COc1ccc(OC)c(C(c2nnnn2C2CCCC2)N2CCN(c3ccc(F)cc3)CC2)c1 (stereo unspecified)	?	-24	-2.0%	6	?	-2.3
CCc1nnc(NC(=O)CN2CCN(Cc3ccc(F)cc3)CC2)s1	-6	-13	1.3%	12	1.2	-1.1
O=C(NCCc1ccc(Cl)cc1)c1nnc(Cc2ccc(Cl)cc2Cl)o1	/	/	-0.4%	-11	-0.8	/
Cc1ccc(Nc2ccc(N3CCN(c4ccc([N+](=O)[O-])cc4)CC3)nn2)cc1	0	-11	2.4%	12	-1.0	-1.7
CCOc1ccc(-n2c(C)nc3cc(C(=O)NCc4ccc5c(c4)OCO5)ccc32)cc1	-11	-20	-2.5%	-10	-0.6	-5.5
CCOC(=O)c1cc(-c2ccccc2)nn1CC1CC(c2cccc([N+](=O)[O-])c2)=NO1 (stereo unspecified)	-8	-15	2.5%	-4	0.6	2.2
Cc1cc2c(cc1C)N(C(=O)CN1C(=O)c3ccccc3C1=O)C(C)(C)c1ssc(=S)c1-2	?	-23	-0.7%	8	?	-5.1
CCOC(=O)c1oc2ccccc2c1CN1CCN(C(=O)c2ccccc2)CC1	3	-5	2.2%	-4	1.0	3.5
